From PubChem BioAssay
Yeast UUG start = modulators of start codon recognition fidelity in yeast; S. cerevisiae UUG-firefly luciferase reporter, luminescence/redox ratio; activity score, % at 18.7 µM; hit rate 0.13% among 350,000; AID 602363;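 active means replicate mean at a twofold rise or more, about +100% in these data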;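 further: firefly luciferase made from a UUG start codon reports start codon fidelity; reporter light over untreated wells divided by growth signal over untreated wells; some hits fall short of that in this replicate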
PABP FP inh = blocks human PABP binding to poly(A) RNA; P11940; fluorescence polarization; inhibition, % at 35 µM; hit rate 1% among 290,000;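 active means 50% or more with normal probe brightness, or confirmed in later tests; about a fifth of its hits are not listed in these tables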;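 further: calls also rest on retests at 20 µM and on dose response follow-up; controls were probe without protein and protein plus probe with vehicle; some compounds called inactive have numbers as strong as hits; many hits fall short of the cut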
Target sequence (P11940 whole entry, looked up): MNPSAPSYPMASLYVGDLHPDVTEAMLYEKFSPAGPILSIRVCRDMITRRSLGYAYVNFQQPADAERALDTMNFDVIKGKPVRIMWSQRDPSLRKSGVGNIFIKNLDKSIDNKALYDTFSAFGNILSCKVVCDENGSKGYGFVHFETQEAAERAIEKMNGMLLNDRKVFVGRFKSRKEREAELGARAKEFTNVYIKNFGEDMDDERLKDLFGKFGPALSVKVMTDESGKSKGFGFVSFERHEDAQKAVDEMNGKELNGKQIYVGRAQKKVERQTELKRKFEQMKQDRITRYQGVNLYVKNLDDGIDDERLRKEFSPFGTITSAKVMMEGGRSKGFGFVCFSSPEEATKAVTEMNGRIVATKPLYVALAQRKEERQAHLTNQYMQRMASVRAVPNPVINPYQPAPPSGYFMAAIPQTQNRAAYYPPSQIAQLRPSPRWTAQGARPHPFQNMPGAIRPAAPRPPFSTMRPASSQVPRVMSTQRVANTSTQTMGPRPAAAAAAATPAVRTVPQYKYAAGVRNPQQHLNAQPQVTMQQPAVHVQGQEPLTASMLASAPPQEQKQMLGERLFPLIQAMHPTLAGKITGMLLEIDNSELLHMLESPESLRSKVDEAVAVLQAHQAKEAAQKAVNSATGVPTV
eIF4H FP inh = inhibitors of RNA binding by human eIF4H | inhibition, % at 35 µM | AID 2012 | hit rate 0.94% among 290,000 | eIF4H fluorescence polarization binding assay;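 active means 50% or more with normal probe brightness, or confirmed in later tests; about a fifth of its hits are not listed in these tables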;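 further: calls also rest on retests at 20 µM and on dose response follow-up; 0% = protein and probe with vehicle and 100% = probe without protein; strong numbers were not always called active; many hits fall short of the cut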
Env fusion inh = blocks HIV Env-driven cell-cell fusion | HeLa-JRFL Env/CEM21 cell fusion, luciferase | inhibition, % at 12.3 µM | AID 651610 | hit rate 1.1% among 360,000;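 active means mean replicate inhibition score of at least 50 and every replicate individually at or above 50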;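 further: 0% = plate neutral controls and 100% = maraviroc near 300 nM; one replicate is shown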
MT1-MMP act inh = inhibitors of human MT1-MMP activation; HT1080 RFP-PRO-GFP cells, GFP/RFP ratio fluorescence, overnight; percent of plate control window, DMSO zero; hit rate 0.061% among 360,000; GFP/RFP ratio change, % at 20 µM;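 active means GFP/RFP ratio change of at least 30% with cell ATP level not reduced by more than half and red fluorescence within 50% of control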; further: strong numbers were not always called active
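Compound: 20 µM single dose, 1% DMSO / System: HT1080 RFP-PRO-GFP cells / Controls: DMSO and RFP-L50D-GFP cell wells / Read-out basis: GFP/RFP fluorescence ratio / Schedule: overnight compound exposure at 37 °C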
CSC inhib = cancer stem cell inhibition | cancer stem cell-like cells viability, luminescence | inhibition, % at 7.5 µM | hit rate 1.1% among 300,000 | AID 2717;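 active means mean at 75% or more and at least half the replicates too; tested in HMLE shEcad cells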;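 further: 0% = median of negative and 100% = median of positive control wells; the first replicate is given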
Rce1 inh = inhibitors of yeast Ras-converting enzyme; yeast membranes, quenched prenylated peptide cleavage fluorescence; calls only; hit rate 0.27% among 290,000; AID 2563;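 active means fall in fluorescence gain of 50% or more versus controls, with final raw signal at or below 3038400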;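 further: plate controls were neutral control wells for no effect and wells lacking membranes for full effect; tested at 10 µM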
Target sequence (Q03530 whole entry, looked up): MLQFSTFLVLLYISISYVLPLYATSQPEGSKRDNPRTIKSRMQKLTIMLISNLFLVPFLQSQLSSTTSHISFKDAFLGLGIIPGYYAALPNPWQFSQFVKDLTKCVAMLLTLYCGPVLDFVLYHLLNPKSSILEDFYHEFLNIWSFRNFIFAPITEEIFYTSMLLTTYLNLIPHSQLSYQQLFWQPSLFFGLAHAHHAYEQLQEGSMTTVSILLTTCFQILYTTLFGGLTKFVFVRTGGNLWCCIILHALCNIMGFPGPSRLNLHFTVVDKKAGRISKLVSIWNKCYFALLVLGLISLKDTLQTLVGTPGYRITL
MT1-MMP act inh RFP = also measured in MT1-MMP act inh; calls as there; RFP signal change, %; measured here: RFP expression control read;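 0 = vehicle wells; hits needed this value within 50% of zero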
* = called active by the depositor; i = inactive; nt = no result given; + = active, no number. Compounds were not picked by outcome. Share with any hit: about 3%.

compound | CSC inhib | MT1-MMP act inh RFP | Rce1 inh | Yeast UUG start | PABP FP inh | MT1-MMP act inh | eIF4H FP inh | Env fusion inh
CC1=C(C(=O)Nc2ccc(C)cc2C)C(c2ccc([N+](=O)[O-])cc2)n2ncnc2N1 (configuration not stated) | -6.1 | -0.7 | i | nt | -2.9 | -7.0 | 7.9 | -2.5
O=C(NCc1ccccc1)c1ccc(Cl)cc1[N+](=O)[O-] | -5.7 | 4.2 | i | -11.7 | 3.0 | 2.7 | 29.0 | -18.8
OC(CSc1c(Cl)cccc1Cl)CN1CCN(c2ccc(F)cc2)CC1 (configuration not stated) | 3.3 | -4.3 | nt | -1.0 | -11.8 | 6.0 | -13.3 | 14.1
O=C(c1ccc(Oc2ccc(C(F)(F)F)cc2[N+](=O)[O-])cc1)N1CCOCC1 | 1.2 | nt | i | nt | -0.5 | nt | -15.8 | 21.6
Cn1ncc(Cl)c1C(=O)N1CCN(c2ccccc2)CC1 | -11.4 | 1.3 | i | -8.6 | 12.6 | 2.1 | 3.0 | -3.3
CC(=O)Nc1cccc(-c2nnc(-c3ccccc3)o2)c1 | -10.5 | 1.5 | i | -17.9 | -7.9 | 3.4 | -1.7 | -87.5
CCCC(=O)Nc1cccc(-c2cn3ccsc3n2)c1 | -5.0 | 2.8 | i | -28.5 | 1.7 | 2.3 | 2.2 | nt
Cc1[nH]n(-c2ccccc2)c(=O)c1C=Nc1ccc(S(=O)(=O)Nc2nccs2)cc1 | -12.0 | -1.9 | i | nt | -17.2 | -3.5 | -1.2 | -3.0
CCCCOc1ccc(NC(=O)CSc2nnnn2C)cc1 | -1.9 | -0.9 | i | -8.0 | -4.3 | 0.8 | -10.6 | nt
O=C1CC(=C(c2ccccc2)c2ccccc2)C(=O)N1CCCN1CCN(c2cccc(Cl)c2)CC1 | nt | -3.3 | i | -6.4 | 1.6 | -0.8 | -5.2 | nt
CCn1c(/N=C/c2ccccc2O)nc2ccccc21 | -14.3 | 5.6 | i | -8.4 | -4.9 | -3.1 | -1.3 | -20.5
Cc1ccccc1CS(=O)(=O)Cc1ccc(C(=O)NCC2CCCO2)o1 (configuration not stated) | -2.7 | 3.1 | i | nt | 0.1 | 0.0 | 5.2 | nt
O=C1CC(c2ccccc2)c2cc(O)ccc2O1 (configuration not stated) | -7.0 | 4.0 | i | nt | 8.3 | 5.5 | 4.5 | nt
Cc1ccc(S(=O)(=O)NC(=O)c2cc(C)n(CC(c3ccccc3)N(C)C)c2C)cc1 (configuration not stated) | -8.6 | 1.9 | i | nt | -15.9 | -0.5 | 0.5 | -15.7
COc1cc(OC)cc(-c2sc3ccc(OC)cc3c2-c2ccc(O)cc2)c1 | 136.1* | 0.5 | nt | -13.4 | nt | 4.3 | nt | -7.5
COc1cc(C(=O)NCCSc2ccc(Br)cc2)cc(OC)c1OC | 5.7 | 5.3 | i | nt | 1.1 | 5.4 | -1.8 | -3.2
COC(=O)c1ccc(NC(=O)NCCCl)cc1 | -7.1 | 6.4 | i | -11.0 | 6.3 | 4.5 | -2.5 | -32.6
CCOc1ccc(OCCSc2nc(-c3ccccc3)cc(=O)[nH]2)cc1 | 2.5 | nt | i | nt | -3.5 | nt | -1.3 | 16.3
O=C(CN1C(=O)C2CC=CCC2C1=O)Nc1ccc(S(=O)(=O)N2CCOCC2)cc1 (configuration not stated) | -2.1 | 1.1 | i | -6.9 | 0.1 | 5.3 | 1.8 | 2.3
Cn1c2c(c(=O)n(C)c1=O)[C@@H]1c3c(ccc4ccccc34)OC[C@@H]1CO2 | -11.7 | 10.7 | i | -12.4 | 4.4 | 7.4 | -9.7 | nt

Additional results:
compound | CSC inhib | MT1-MMP act inh RFP | Rce1 inh | Yeast UUG start | PABP FP inh | MT1-MMP act inh | eIF4H FP inh | Env fusion inh
O=C1c2ccccc2C2(c3cc(C(F)(F)F)cc(C(F)(F)F)c3)NCCN12 (configuration not stated) | -5.6 | -0.3 | i | -9.2 | 6.7 | -0.5 | -12.6 | 11.8
COc1ccc(CNC(N)=O)cc1 | -12.5 | 1.3 | i | -13.1 | nt | -2.3 | nt | 9.2
Cn1cccc1C(=O)OCc1ccc(C(C)(C)C)cc1 | 0.8 | -0.3 | i | 6.4 | 12.8 | -3.3 | 2.3 | -17.0
COc1ccc(C2(O)C(=O)Nc3ccc(C)cc32)cc1OC (configuration not stated) | -3.1 | 0.3 | i | -26.1 | 9.6 | 2.9 | 1.9 | -6.7
CC12CCC(=O)C=C1CCC1C2C(O)CC2(C)C(c3csc(N)n3)CCC12 (configuration not stated) | nt | -18.1 | nt | -7.1 | nt | -4.7 | nt | -18.1
CCC[C@H]1CN(c2ccc(Br)cc2)C(=O)[C@@H]1CC(=O)Nc1ccccc1 | nt | -0.6 | nt | -7.8 | nt | -1.1 | nt | -67.3
CN1CCN(C(=O)C[C@H]2CC[C@H]3[C@@H](COC[C@@H](O)CN3C(=O)C3CCCC3)O2)CC1 | nt | 6.1 | nt | -11.1 | nt | 4.4 | nt | -4.4
Cc1csc2c(N3CCN(C(=S)Nc4ccc(C(F)(F)F)cc4)CC3)ncnc12 | 19.7 | -7.4 | i | -24.1 | 5.1 | 23.3 | 5.1 | 23.3
CN(C)c1ccc(/C=N/Nc2nc3ccccc3o2)cc1 | 24.7 | -2.4 | i | -26.5 | -8.0 | -1.4 | 6.5 | -91.3
O=C(Nc1ccccc1-c1nnc(SCc2ccccc2)o1)c1ccccc1 | 32.2 | -0.9 | i | -24.5 | -1.8 | -2.2 | 0.8 | -104.6
COc1ccc(N(CC(=O)Nc2ccc(C)cc2)S(=O)(=O)c2c(C)noc2C)cc1 | -6.3 | -3.7 | i | -17.1 | 6.2 | -0.9 | -4.4 | 2.8
CC1(C)c2ccccc2-c2nc3ccccc3cc2C1O (configuration not stated) | 40.7 | -1.9 | i | 1.5 | 4.6 | -7.2 | 8.4 | 0.7
COc1ccc(C(=O)N2CCN(S(=O)(=O)c3ccc(C)cc3)CC2)cc1S(=O)(=O)N1CCOCC1 | 6.5 | -1.0 | i | 3.2 | 3.0 | -2.3 | -3.6 | -5.5
CNC(=S)Nc1ccc2nc(C)c(C)nc2c1 | -10.4 | 4.5 | i | -13.1 | -0.8 | 1.6 | -7.3 | -35.6
O=c1oc2cc(OCc3c(F)c(F)c(F)c(F)c3F)ccc2cc1-c1ccccn1 | -8.3 | 5.5 | i | nt | 6.9 | -3.1 | 5.4 | 12.5
O=C(CN1CCc2ccccc2C1)Nc1cc(S(=O)(=O)N2CCOCC2)ccc1N1CCOCC1 | 33.7 | 7.0 | i | nt | -4.7 | 2.0 | -2.2 | -8.1
S=C(Nc1ccc2nc(-c3ccccn3)c(-c3ccccn3)nc2c1)N1CCCCC1 | nt | -0.4 | nt | -25.8 | 50.0* | -72.7 | 38.5 | nt
C=CCSc1nnc(CCc2ccccc2)n1N | nt | -0.5 | nt | -8.4 | nt | 2.4 | nt | -67.8
CCSc1nnc(NC(=O)c2nc(S(=O)(=O)Cc3ccc(F)cc3)ncc2Cl)s1 | 102.8* | 9.3 | i | -11.1 | 1.0 | 3.6 | 3.5 | -13.3
Cc1ccc(C(=O)Nc2c3c(nn2C(C)(C)C)CS(=O)(=O)C3)cc1C | -2.5 | 6.4 | i | -8.7 | -1.0 | 1.3 | -8.4 | 19.3

The results go on.
compound | CSC inhib | MT1-MMP act inh RFP | Rce1 inh | Yeast UUG start | PABP FP inh | MT1-MMP act inh | eIF4H FP inh | Env fusion inh
Cc1ccc(CN(Cc2cc3cccc(C)c3[nH]c2=O)C(=S)NCCCN(C)C)cc1 | 6.2 | -5.9 | i | -21.4 | 3.6 | -7.4 | -3.3 | -9.1
CCN(CC)C(=O)[C@H]1C[C@H](CC(=O)NCCc2ccccn2)C(=O)N2CCc3c([nH]c4cc(CCC(=O)N(C)C)ccc34)[C@]12C | nt | 3.4 | nt | -8.6 | nt | 4.3 | nt | -300.8
COc1ccc(-c2noc3c2-c2nc(-c4ccc(C)cc4)sc2CC3)cc1 | -4.5 | 2.2 | i | 1.0 | nt | -0.6 | nt | -63.0
CCOC(=O)c1sc(NC(=O)CNC(=O)Cn2cnc3sc(C)c(C)c3c2=O)nc1C | 11.4 | 1.8 | i | nt | -7.8 | -1.5 | -30.6 | nt
CC(=O)c1ccc(N2C(=O)[C@@H]3C(CCC(N)=O)NC4(C(=O)Nc5c4ccc(Cl)c5C)[C@@H]3C2=O)cc1 (some centres not stated) | 7.1 | -2.6 | i | -10.1 | 5.1 | -6.9 | -1.1 | -106.2
Cc1cccc(C(=O)NNS(=O)(=O)c2ccccc2[N+](=O)[O-])c1 | nt | -1.1 | i | -19.6 | 2.6 | 1.2 | -2.8 | nt
O=C(Cc1cccs1)Nc1ccc(-c2nc3ccccc3[nH]2)cc1 | nt | -1.0 | i | -15.8 | -0.9 | 6.3 | -1.9 | -162.9
O=C(O)c1cc(S(=O)(=O)Nc2cc(Cl)ccc2Oc2ccccc2)ccc1O | nt | 2.9 | nt | -4.7 | nt | -3.5 | nt | -7.5
CNC(=S)N1CCN(c2ccccc2OC)CC1 | -12.0 | -2.4 | i | -15.0 | 5.6 | -2.5 | -4.3 | -21.6
CCCCC(=O)OCC(=O)N1N=C(c2c[nH]c3ccccc23)C(O)C1c1ccc(OC)cc1 (configuration not stated) | 2.6 | 0.6 | i | nt | 9.6 | 2.2 | -10.8 | 6.7
CC(=C/c1ccco1)/C=N/NC(=O)c1nnn(-c2nonc2N)c1CN(C)C | -13.1 | 1.7 | i | 1.7 | 14.0 | -2.5 | 12.6 | 16.2
COc1ccc(S(=O)(=O)Nc2ccc3c(c2)N(C(C)=O)CCC3)cc1 | nt | -23.8 | i | -16.6 | nt | -9.2 | nt | -4.0
Cc1ccc(C(=O)c2c3ccccc3[n+]([O-])n2CCO)cc1 | -9.6 | 0.3 | + | -13.2 | nt | 5.0 | nt | -18.9
Cc1cc(OCc2nnc(SCC(=O)O)n2-c2ccccc2)ccc1Cl | 3.6 | -3.3 | i | -6.3 | 6.8 | -1.0 | 1.1 | -2.0
C=CCNC(=S)N(CC=C)C1CCS(=O)(=O)C1 (configuration not stated) | 10.6 | nt | i | -17.1 | -6.4 | nt | 9.1 | 5.0
COc1ccc(C(=O)/C(C)=N/O)cc1OC | 1.2 | -0.5 | i | -18.7 | -3.3 | 1.6 | -3.1 | nt
CCOC(=O)/C=C/C(=O)Nc1ccccc1-c1ccccc1NC(=O)/C=C/C(=O)OCC | 57.1 | -2.7 | i | nt | -4.5 | -0.7 | -7.6 | -13.2
Nc1c(C(=O)CSc2nnc(-c3ccccc3F)o2)c(=O)[nH]c(=O)n1C1CC1 | -4.6 | -1.6 | nt | -9.6 | nt | 1.1 | nt | nt
CCNC(=S)N1CCN(c2cccc(C(F)(F)F)c2)CC1 | -20.5 | 0.0 | i | -11.1 | -2.0 | -2.9 | 5.8 | -15.3
COc1ccc(S(=O)(=O)N(CC(=O)NC2CC2)C2CCCCC2)cc1Cl | -5.5 | -0.1 | i | 3.1 | 4.3 | 6.7 | -4.6 | -5.3

The listing continues.
compound | CSC inhib | MT1-MMP act inh RFP | Rce1 inh | Yeast UUG start | PABP FP inh | MT1-MMP act inh | eIF4H FP inh | Env fusion inh
O=C(COc1ccc(Cl)cc1)NCC(=O)N/N=C/c1cccs1 | -4.7 | 0.5 | i | nt | 2.1 | 0.0 | -12.7 | -9.5
COc1ccc(-c2cn(CCC(=O)O)c(C)n2)cc1 | -9.6 | 3.7 | nt | -15.6 | nt | -0.5 | nt | 16.5
O=C(COc1cc(Cl)c(Cl)cc1Cl)NCCc1ccccn1 | 7.1 | 8.9 | i | nt | -15.2 | 3.8 | -13.1 | -1.4
CSc1cccc(N2CC(C(=O)NCCC3=CCCCC3)CC2=O)c1 (configuration not stated) | 1.0 | 1.7 | i | 6.3 | nt | -0.6 | nt | nt
